Mtb H37Rv = M. tuberculosis H37Rv growth inhibitors, H37Rv strain (AID 1626); M. tuberculosis H37Rv growth inhibition; higher % means a stronger effect; 220,000 tested, 0.95% active; inhibition, % at 10 µM, or IC50 in µM where a hit was titrated;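 active = confirmed in a dose series; inconclusive = inhibition above 80% but not taken into the dose series; inactive = below 80% or under 30% at every dose of the series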;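 also: bacteria incubated seven days before Alamar blue readout; 0% = bacteria only wells and 100% = bacteria with antibiotic wells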
Mtb bLac sens = beta-lactam sensitization of Mtb H37Rv, H37Rv; M. tuberculosis H37Rv growth with meropenem, percent inhibition; hits of this screen are not shown here; inhibition, % at 25 µM; 330,000 tested, 0.27% active;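 active = about 74% or more and at least 40 points above the plate without the antibiotic, then above 30% in a dose series; inconclusive = first-round hits that could not be retested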;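 also: growth measured after seven days incubation then overnight dye step; 0% = bacteria only wells and 100% = bacteria with antibiotic; twin plates without the antibiotic show which effects depend on it; some results filed as inactive read as strong as hits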
YopH inh = YopH tyrosine phosphatase inhibitors, primary screen, biochemical, fluorescence Ex485/Em525; 140,000 tested, 0.16% active; YopH tyrosine phosphatase [Yersinia enterocolitica]; AID 898, 2007; inhibition, %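 (about 10 µM by stock and volumes)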;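 active = inhibition of 50% or more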;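 also: controls were vehicle for no effect and minimum signal wells for full effect; inactives centre near -20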
Arbovirus inh = antivirals against arbovirus infection, primary screen, cell-based, full library, 10K replicate subset; arbovirus infection cell-based antiviral screen; AID 1251, 2008; inhibition, % at 10 µM; 200,000 tested, 0.37% active;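 active = inhibition from about 30%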;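 also: bluetongue infection of BSR cells; cell survival read as ATP light after 72 h; 0% = infected wells without compound and 100% = uninfected wells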
RecA intein inh = Mtb RecA intein splicing inhibitors, primary screen, biochemical, fluorescence, HTS | Protein RecA (Mycobacterium tuberculosis (strain ATCC 25618 / H37Rv)), P9WHJ3 | cell-free RecA intein splicing | inhibition, %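 (about 9 µM by stock and volumes)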 | 290,000 tested, 0.75% active; in the data active = inhibition above about 30%; inconclusive = no clear call, values can overlap the other calls;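 also: 0% = vehicle wells and 100% = reference inhibitor control wells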
Target sequence (P9WHJ3 whole entry, looked up): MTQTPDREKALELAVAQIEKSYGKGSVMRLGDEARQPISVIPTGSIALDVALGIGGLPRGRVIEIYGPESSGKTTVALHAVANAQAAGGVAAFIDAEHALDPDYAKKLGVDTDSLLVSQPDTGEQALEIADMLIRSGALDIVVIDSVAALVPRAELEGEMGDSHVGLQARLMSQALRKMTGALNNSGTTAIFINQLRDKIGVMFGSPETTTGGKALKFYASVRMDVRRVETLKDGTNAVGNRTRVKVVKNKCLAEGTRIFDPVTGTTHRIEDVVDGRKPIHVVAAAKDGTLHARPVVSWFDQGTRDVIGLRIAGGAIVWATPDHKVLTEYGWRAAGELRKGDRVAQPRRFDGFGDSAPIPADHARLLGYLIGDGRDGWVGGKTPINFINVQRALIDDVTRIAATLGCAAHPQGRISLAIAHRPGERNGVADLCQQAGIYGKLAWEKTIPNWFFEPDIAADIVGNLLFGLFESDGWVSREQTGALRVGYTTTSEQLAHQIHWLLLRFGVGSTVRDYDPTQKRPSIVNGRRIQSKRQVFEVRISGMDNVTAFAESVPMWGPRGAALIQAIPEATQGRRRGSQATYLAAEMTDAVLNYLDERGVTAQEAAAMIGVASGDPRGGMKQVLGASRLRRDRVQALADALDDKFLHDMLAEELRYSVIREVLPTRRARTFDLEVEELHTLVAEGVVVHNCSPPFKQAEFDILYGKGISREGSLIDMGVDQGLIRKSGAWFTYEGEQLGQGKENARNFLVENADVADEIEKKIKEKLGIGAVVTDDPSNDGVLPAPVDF
Arbovirus inh repeat = recorded beside Arbovirus inh, whose call it bears; inhibition, %; measured here: 10K subset replicate screen; many hits read low in the repeat;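 first of two repeat runs on a subset; 0% = infected and 100% = uninfected wells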
Active calls of the source: *; ? = inconclusive; · = not tested or not shown. This is a subset (hit frequency here may not be typical).

SMILES	Mtb H37Rv	Mtb bLac sens	YopH inh	Arbovirus inh	RecA intein inh	others
CCOCCCNC(=S)N1C2CCC1CC(NC(=O)NC13CC4CC(CC(C4)C1)C3)C2 (centres undefined)	15%	-1	-27	3	-1.2
CCCc1nnc(NC(=O)Cn2c(=O)sc3ccccc32)s1	-5%	7	-40	-7	3.6
O=C(N/N=C/C=C/c1ccc2c(c1)OCO2)c1ccc([N+](=O)[O-])cc1	13%	9	-23	-13	-3.1
COc1ccc(C(C(=O)NC2CCCCC2)N(Cc2cccnc2)C(=O)c2snc(C(N)=O)c2N)cc1 (centres undefined)	·	-5	·	·	-6.1
CCCCOCCCn1c(N)c(C(=O)OC(C)COC)c2nc3ccccc3nc21 (centres undefined)	-3%	-13	-12	3	-77
COc1ccc(C)cc1S(=O)(=O)N1CCCC(N2CCOCC2)C1 (centres undefined)	·	4	·	·	-3.2
CC1CC(CC(C)C(=O)Nc2nncs2)C(=O)O1 (centres undefined)	-2%	8	-26	-4	1.0
O=S1(=O)N=C(N(CCO)/N=C/c2ccncc2)c2ccccc21	-2%	-1	·	4	·
Cc1ccc(C(=O)NS(=O)(=O)c2ccccc2)cc1	-11%	0	·	7	-3.7
O=[N+]([O-])c1cnn(-c2nc(-c3ccccc3)cc(C(F)(F)F)n2)c1	-9%	-3	·	-2	-0.6
C=CCN(CC=C)C(=O)c1c(OC)cccc1OC	-4%	-2	-31	1	1.6
Cc1nnc(SCC(=O)N2CCc3ccccc3C2)n1-c1ccccc1	-1%	-5	-39	-12	1.9
Cc1ccnc(NS(=O)(=O)c2ccc(NC(=O)Cc3ccc(F)cc3)cc2)n1	·	1	·	·	-1.9
Cc1cc(C)c2nc(Cl)c(C3NC(=O)c4ccccc4N3)cc2c1 (centres undefined)	4%	0	·	6	-1.4
O=C(C1CC1)N1CCc2cc(Br)cc(S(=O)(=O)NCc3ccc4c(c3)OCO4)c21	-8%	-1	-6	1	0.4	Arbovirus inh repeat=7
Cc1ccc2[nH]c(=O)c(CN(Cc3ccco3)C(=O)c3ccncc3)cc2c1	-11%	2	-23	-23	0.2
Cc1csc(NC(=O)CSCc2c(C)noc2C)n1	·	-3	·	·	-3.8
CCCCCCN1CC(O)=C(c2nc3ccccc3[nH]2)C1=N	5%	17	-22	4	1.7
CC(C)OCCCn1c(NN)nc2ccccc2c1=O	4%	7	·	23	-4.2
CC(c1ccco1)N(C(=O)c1ccccc1NS(=O)(=O)c1cc([N+](=O)[O-])ccc1Cl)c1ccccn1 (centres undefined)	-4%	-1	-27	13	4.7
CCCCc1nn2c(N)c(/C=C3\C=Nc4ccccc43)c(=O)nc2s1	0%	6	-23	33*	-3.9
OCC1(Cc2ccccc2)CCN(Cc2ccc(-c3ccco3)cc2)CC1	1%	21	·	-18	-0.6
CC(C)(C)C(=O)OCCn1c(=O)c2cc3c(=O)n(CCOC(=O)C(C)(C)C)c(=O)c3cc2c1=O	-11%	-5	-33	9	1.3
COc1cc(OC)c(NC(=S)NCc2ccc(F)cc2)cc1Cl	1%	-3	·	2	2.1
O=C(NC(=S)N1CCN(c2ccc([N+](=O)[O-])cc2)CC1)c1ccccc1F	-13%	-2	-16	-1	-1.5
Cc1occc1C(=O)N1CCCC(Nc2ccc(C(C)C)cc2)C1 (centres undefined)	·	2	·	·	-3.6
CC(C)(C)c1ccc(NC(=O)Nc2ccc(F)cc2)cc1	4%	4	·	-1	1.5
Cc1ccc(-c2nc(CS(=O)(=O)CC(=O)N3CCN(C)CC3)c(C)o2)cc1	·	0	·	·	-97
COc1cc(OC)c(OC)cc1CN1CCCC(C(=O)c2ccccc2SC)C1 (centres undefined)	2%	-7	·	2	0.6
CCOc1cc(/C=N/NC(=O)c2cccs2)cc([N+](=O)[O-])c1O	1%	·	·	4	-0.9

Reprinted from the part before: 5 compounds; new compounds follow.
SMILES	Mtb H37Rv	Mtb bLac sens	YopH inh	Arbovirus inh	RecA intein inh	others
Cc1occc1C(=O)N1CCCC(Nc2ccc(C(C)C)cc2)C1 (centres undefined)	·	2	·	·	-3.6
CC(C)(C)c1ccc(NC(=O)Nc2ccc(F)cc2)cc1	4%	4	·	-1	1.5
Cc1ccc(-c2nc(CS(=O)(=O)CC(=O)N3CCN(C)CC3)c(C)o2)cc1	·	0	·	·	-97
COc1cc(OC)c(OC)cc1CN1CCCC(C(=O)c2ccccc2SC)C1 (centres undefined)	2%	-7	·	2	0.6
CCOc1cc(/C=N/NC(=O)c2cccs2)cc([N+](=O)[O-])c1O	1%	·	·	4	-0.9
CC(=O)c1cccc(NC(=O)C2CCCCC2)c1	-13%	-2	-6	0	-2.2
Cc1ccc2nc(NC(=O)COC(=O)CSc3nc(C)cc(C)n3)sc2c1	2%	-6	-26	11	-3.5
CN(C)/C(=N\S(=O)(=O)c1ccc(F)cc1)c1ccccc1	·	-2	·	·	2.9
Cn1c(C(=O)NCCN2CCOCC2)cc2c(=O)n3ccccc3nc21	·	1	·	·	-484
COc1ccc(C=O)cc1CN1CCCN(Cc2ccccc2F)S1(=O)=O	·	3	·	·	6.2
C[C@H](NC(=O)c1nc[nH]c1C(=O)N1CCN(c2ccccc2)CC1)C(=O)OC(C)(C)C	-3%	-22	·	·	-2.3
c1csc(Cc2nn3c(-c4ccncc4)nnc3s2)c1	-12%	-10	-29	16	2.0
O=C(O)c1ccc(/C=N/NC(=S)NCCN2CCOCC2)cc1	8%	-3	·	5	-2.0
O=C(Nc1ccc(N2CCN(C(=O)c3ccccc3)CC2)c(Cl)c1)c1ccco1	5%	22	-38	-4	-0.9	Arbovirus inh repeat=2
O=C(O)c1cn(CCOc2ccccc2Cl)c2ccccc12	0%	-2	·	2	0.5
COc1ccc(-c2cn[nH]c2-c2ccc(OCC(=O)NN)cc2O)cc1	·	-2	·	·	-3.4
O=[N+]([O-])c1cc(-c2nnc(C34CC5CC(CC(C5)C3)C4)o2)cc([N+](=O)[O-])c1	·	100	-39	-7	-1.5
O=C(CCS(=O)(=O)c1cc2c(cc1Cl)NC(=O)CO2)NCCc1ccccc1	·	3	·	·	11
Oc1ccc(N=Nc2ccc(Br)cc2)c(O)c1	18%	-3	·	·	8.4
CCC/C(O)=C1\C(=O)CC(C)(C)CC1=NCCO	3%	-10	-52	12	0.9	Arbovirus inh repeat=2
O=c1c2sc3nc(N4CCOCC4)c4c(c3c2ncn1CCc1ccccc1)CCCC4	·	78	-15	10	-1.9
O=C(CSc1nnc(Cc2ccccc2)o1)Nc1cccc(F)c1	·	0	·	·	43*
COc1ccc(C(=O)N/N=C/C2CC=CCC2)cc1OC (centres undefined)	-3%	10	·	6	-2.3
CCn1c(NCCc2ccc(OC)c(OC)c2)nc2c1c(=O)n(C)c(=O)n2C	-6%	-2	·	·	-3.4
COC(=O)c1ccc(C(=O)OC)c(NC(=O)COc2ccccc2OC)c1	4%	1	3	-1	-0.8
CCc1cccc(C)c1NC(=S)NCc1ccccc1	-6%	10	-29	11	0.3
OCCn1c(-c2ccc(F)cc2)csc1=Nc1ccccc1	7%	2	-20	-3	4.7
Cn1c(-c2ccc(F)cc2)cnc1SCC(=O)NCc1ccco1	-11%	-4	-11	-4	0.5
Cc1cccc(Sc2nc(-c3ccccc3)ncc2C(=O)O)c1	-1%	-2	·	32*	·
CC(C)C(=O)NC(=S)Nc1ccc(CN2CCOCC2)cc1	9%	-2	·	0	0.5
O=C(CSc1nnc(NC(=O)C2CCCCC2)s1)NCc1ccco1	2%	11	·	0	13
O=C(CNC(=S)N(Cc1ccccc1)Cc1cccnc1)NC1CCCC1	-4%	-4	16	-1	-0.8
Cc1ccsc1/C=C(\C#N)C(=O)NCc1ccco1	8%	-5	-13	-21	-3.5
O=C(CCNS(=O)(=O)c1ccccc1C(F)(F)F)NCC(c1ccco1)N1CCCCC1 (centres undefined)	·	-4	·	·	1.0
O=C(Nc1ccc(Cl)cc1)c1ccsn1	3%	-7	-18	-1	1.3
CCCCN(C(=O)Oc1ccccc1)C1CCS(=O)(=O)C1 (centres undefined)	-6%	26	·	·	0.9
Cn1c(=O)n(Cc2ccccc2)c(=O)c2c1nc1n2CCCN1Cc1ccccc1	4%	4	-27	2	-2.3
COc1ccc(-n2nc3c(N4CCC(C(=O)NCC(C)c5ccccc5)CC4)nnc(C)c3c2C)cc1 (centres undefined)	·	87	·	·	-0.5
CN(CCc1ccccc1)Cc1nc(-c2cnccn2)no1	4%	1	·	1	-4.5
CC1CCCN(C(=O)C2CCCN(S(=O)(=O)c3cccc4nsnc34)C2)C1 (centres undefined)	-17%	-8	-5	7	-0.3
O=C(CCN1CCN(c2ccccc2)CC1)N/N=C/c1ccc([N+](=O)[O-])o1	29%	98	·	-10	-2.7
CN(CC(=O)Nc1ccc(F)cc1)C(=O)c1ccccc1OCc1ccc(F)cc1	·	-1	·	·	5.8
c1ccc2c(-c3nnc(SCc4cn5ccccc5n4)o3)c[nH]c2c1	6%	-1	6	-3	-5.2
CCc1nnc(NC(=O)CSc2nnc(COc3ccccc3C)o2)s1	-11%	2	-47	12	-2.5
COc1ccc(CN(C)CC(=O)Nc2sc3c(c2C#N)CCC3)c(OC)c1	-3%	-5	·	2	1.3
CCOc1ccc(S(=O)(=O)N2CCC(C(N)=O)CC2)c2ccccc12	-13%	-2	34	-1	·
Cc1cccc(N2CC(=O)N(c3cccc(C)c3)CC2=O)c1	-12%	?	-47	0	0.3
O=C(Oc1ccccc1Cl)C1CCN(C(=O)c2ccc(F)cc2)CC1	·	55	·	·	7.9
C=CCNC(=O)c1onc(CCl)c1C(=O)OC	10%	99	-36	0	0.7
Cn1ncc([N+](=O)[O-])c1C(=O)Nc1ccc(C2CCCCC2)cc1	7%	1	·	7	1.9
COc1ccccc1CNC(=O)CNC(=O)Cn1cnc2ccccc2c1=O	-2%	-5	-18	0	-0.7
CCOC(=O)C1=C(O)/C(=C/c2ccccn2)SC1=Nc1ccc(Cl)cc1	17%	17	3	-11	-0.6
O=C(Nc1ccccc1C(=O)O)c1ccc(Cl)c(S(=O)(=O)N2CCOCC2)c1	-10%	-6	-41	26	-0.2
O=C(Nc1cccc2cccnc12)c1ccc2c(c1)OCCO2	-2%	49	-5	17	-0.6
O=C1CNC(=O)/C1=C/c1ccccc1	2%	-4	-34	8	1.4

Copied from the entries so far, 3 compounds:
SMILES	Mtb H37Rv	Mtb bLac sens	YopH inh	Arbovirus inh	RecA intein inh	others
O=C(Nc1ccccc1C(=O)O)c1ccc(Cl)c(S(=O)(=O)N2CCOCC2)c1	-10%	-6	-41	26	-0.2
O=C(Nc1cccc2cccnc12)c1ccc2c(c1)OCCO2	-2%	49	-5	17	-0.6
O=C1CNC(=O)/C1=C/c1ccccc1	2%	-4	-34	8	1.4

Remaining list, next part
SMILES	Mtb H37Rv	Mtb bLac sens	YopH inh	Arbovirus inh	RecA intein inh	others
CS(=O)(=O)Nc1cccc(C2=NN(S(=O)(=O)c3ccc(F)cc3)C(c3cccs3)C2)c1 (centres undefined)	1%	1	-26	-4	4.4
CC(C)Nc1nnc(SC(C)C(=O)N(C)C2CCCCC2)s1 (centres undefined)	·	-5	·	·	-1.6
CC(C)CNC(=O)C(=O)NNC(=O)C1CCCCC1	-3%	3	-40	7	-0.1
Cn1cc(CNCc2cn(C)nc2-c2ccc(C3CCCCC3)cc2)cn1	8%	0	·	-25	4.8
C/C(CC(=O)Nc1cc(C)ccn1)=N\NC(=O)C(=O)NC(C)C	-6%	-7	·	-5	64*
Cc1cc(C)n2nc(C(=O)NC(c3ccccc3)c3ccccc3)nc2n1	0%	0	·	2	1.6
N#CC1=C2N=C(N)c3ccccc3N2C2=C(C(=O)CCC2)C1c1ccccc1F (centres undefined)	-3%	-3	·	·	-2.3
CCN(CC)CCNC(=O)Cc1nn(Cc2ccccc2)c(=O)c2ccccc12	-8%	7	·	1	-1.3
O=C(c1cc(COc2cccc3cnccc23)on1)N1CCCC(CCCO)C1 (centres undefined)	·	-13	·	·	3.5
CC1(C)Cc2nc3sc4c(=O)n(Cc5ccccc5)cnc4c3cc2CS1	26%	72	-21	9	-3.1
CC(C)CC(NC(=O)C1CCC(=O)N1C(=O)OCc1ccccc1)C(=O)NC(Cc1ccccc1)C(N)=O (centres undefined)	·	1	·	·	4.2
CN(C(=O)CN1C(=O)S/C(=C\c2ccccc2)C1=O)C1CCS(=O)(=O)C1 (centres undefined)	·	-6	·	·	2.5
CCOc1ccc(C2=Nn3c(nnc3-c3cccnc3)SC2)cc1	-6%	0	-31	-21	0.9

High-throughput results as filed in PubChem.
